NPYLR7 agonist: agonists of mosquito NPYLR7 receptor, primary screen, cell-based, Aedes aegypti, calcium fluorescence, mosquito biting behavior | Aedes aegypti neuropeptide Y-like receptor 7 (NPYLR7) | HEK293T NPYLR7/Galpha15, GCaMP6s calcium fluorescence | activation, % at 10 µM | hit rate 0.15% among 270,000; in the data active = activation above about 40%;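 note: 0% = vehicle and 100% = reference agonist at the receptor; some compounds past the cut are filed as inactive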
NPYLR7 agonist max-min: second read-out of NPYLR7 agonist, no call of its own (marks repeat the call); activation, %; measured here: Max-Min RFU normalised activation; some inactives read as strong as hits;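 span of the calcium signal over five minutes; 0% = vehicle and 100% = native peptide agonist; compound fluorescence can raise it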
Starred values were filed as active, the others as inactive; & = joins results of further samples. Some of the compounds tested; rates above refer to the full screens.

Screening COc1ccc2cc(C(=O)C3CCCN(C4CCOCC4)C3)ccc2c1 (configuration not stated) returned NPYLR7 agonist 1&2 and NPYLR7 agonist max-min -3&1.
`O=C(CN1CC=C(c2ccccc2)CC1)NCc1cccs1` gave NPYLR7 agonist 1 and NPYLR7 agonist max-min -5.
Screening C=CCNC(=O)c1cn(Cc2ccccc2)cc(C(=O)N2CCCC(C)C2)c1=O (configuration not stated) returned NPYLR7 agonist 5 and NPYLR7 agonist max-min 3.
Screening C=CCn1c(O)c(C(C)=O)c(=O)[nH]c1=S returned NPYLR7 agonist 0 and NPYLR7 agonist max-min -1.
Screening CCc1ccccc1NC(=O)c1cccn(Cc2ccc(Cl)cc2)c1=O returned NPYLR7 agonist 15 and NPYLR7 agonist max-min 8.
`CNCC(=O)c1ccc(O)c(O)c1` gave NPYLR7 agonist 34 and NPYLR7 agonist max-min 21.
For CCC(C)(C)O the results were NPYLR7 agonist -11 and NPYLR7 agonist max-min 1.
`c1ccc([C@@H]2CN(c3cnc4ccccc4n3)[C@@H]3C4CCN(CC4)[C@@H]32)cc1` gave NPYLR7 agonist 9 and NPYLR7 agonist max-min 6.
COC(=O)C1=C(C)OC(=N)C(C#N)C12C(=O)Nc1ccc([N+](=O)[O-])cc12 (configuration not stated) was read as NPYLR7 agonist 25 and NPYLR7 agonist max-min 25.
O=C(NCc1ccccn1)C(C1CCCC1)N1CCN(C(=O)COc2ccc(Cl)cc2)CC1 (configuration not stated) was read as NPYLR7 agonist -7 and NPYLR7 agonist max-min 0.
Screening CC(C)Oc1ccc(NP(=O)(Oc2ccccc2)Oc2ccccc2)cc1 returned NPYLR7 agonist 11 and NPYLR7 agonist max-min 18.
O=C(Nc1ccc(F)c(F)c1F)N1CCN(CCOC(c2ccc(F)cc2)c2ccc(F)cc2)CC1 was read as NPYLR7 agonist 15 and NPYLR7 agonist max-min 18.
`C[C@@H]1CC[C@@]2(NC1)O[C@H]1C[C@H]3[C@@H]4CC=C5C[C@@H](O)CC[C@]5(C)[C@H]4CC[C@]3(C)[C@H]1[C@@H]2C` gave NPYLR7 agonist -3 and NPYLR7 agonist max-min -7.
`Oc1ccc(CN2CCN(Cc3cccc(F)c3)CC2)c(Cl)c1` gave NPYLR7 agonist 5 and NPYLR7 agonist max-min 5.
CCN1CCC(n2nccc2N)CC1 was read as NPYLR7 agonist 4&5 and NPYLR7 agonist max-min 1&12.
Screening O=C(NCCCN1CCCC1=O)c1nn(Cc2ccc(S(=O)(=O)N3CCOCC3)cc2)c2ccccc12 returned NPYLR7 agonist 11 and NPYLR7 agonist max-min 17.
`Cc1ccccc1CC(=O)N1CCN(Cc2ccc(-c3noc(CC(C)C)n3)cc2)CC1` gave NPYLR7 agonist -9 and NPYLR7 agonist max-min -11.
Screening Cc1sc2c(c1C)C(c1ccc(Cl)cc1)=N[C@@H](CC(=O)OC(C)(C)C)c1nnc(C)n1-2 returned NPYLR7 agonist 6 and NPYLR7 agonist max-min -2.
COc1ccc(C(N)Cc2ccc(F)cc2)cc1 (configuration not stated) was read as NPYLR7 agonist 9 and NPYLR7 agonist max-min 7.
CCOCC(=O)NC1CCSC1=O (configuration not stated) was read as NPYLR7 agonist 3 and NPYLR7 agonist max-min 9.
COc1cc(OC)cc(-c2nc3ccccc3c(=O)n2-c2cccc(C)c2)c1 was read as NPYLR7 agonist 5 and NPYLR7 agonist max-min 2.
`COc1ccc(C(=O)C2CCCN(Cc3cccc(F)c3)C2)c(OC)c1` (configuration not stated) gave NPYLR7 agonist 12 and NPYLR7 agonist max-min 8.
Screening c1cc2c3c(cccc3c1)CC2 returned NPYLR7 agonist 7 and NPYLR7 agonist max-min 6.
`Cc1cc(C(=O)NC(C(=O)N(C)C)c2ccccc2)c(C)n1C(C)C` (configuration not stated) gave NPYLR7 agonist 4&1 and NPYLR7 agonist max-min 2&22.
`N=c1sccn1Cc1ccccc1F` gave NPYLR7 agonist 1 and NPYLR7 agonist max-min -2.
O=C(Nc1ccncc1)c1cccn(Cc2c(F)cccc2Cl)c1=O was read as NPYLR7 agonist 13 and NPYLR7 agonist max-min 2.
`Cc1cccc(-n2c(-c3ccccc3I)nc3ccccc3c2=O)c1` gave NPYLR7 agonist 0 and NPYLR7 agonist max-min -4.
`COc1ccccc1CC(C)N(C)C(=O)Cc1csc(C)n1` (configuration not stated) gave NPYLR7 agonist -3 and NPYLR7 agonist max-min -4.
Screening Cc1noc2ccc(C3NCCc4[nH]cnc43)cc12 (configuration not stated) returned NPYLR7 agonist 10 and NPYLR7 agonist max-min 9.
Screening FC(F)OC(F)(F)C(F)Cl (configuration not stated) returned NPYLR7 agonist -18 and NPYLR7 agonist max-min -27.
For CC(C)NCC(O)c1ccccc1Cl (configuration not stated) the results were NPYLR7 agonist -26 and NPYLR7 agonist max-min -32.
`CN1CCC2(CC1)N1CC3(C)CN2CC(C)(C1)C3=O` gave NPYLR7 agonist 5 and NPYLR7 agonist max-min 2.
For CC(C)C1OC2OC(=N)C(C#N)(C2(C)C)C1(C#N)C#N (configuration not stated) the results were NPYLR7 agonist 5 and NPYLR7 agonist max-min 54.
For CCOC(=O)C1=C(C)OC(=N)C(C#N)C12C(=O)Nc1ccccc12 (configuration not stated) the results were NPYLR7 agonist 7 and NPYLR7 agonist max-min 10.
For CN1CCN(P2(=S)C3=C(CCC3)C3=C(CCC3)N2c2ccccc2)CC1 (configuration not stated) the results were NPYLR7 agonist -4&1 and NPYLR7 agonist max-min -10&2.
For O=c1[nH]c(CN2C[C@@H]3[C@H](C2)[C@H]2CC[C@@H]3O2)nc2ccsc12 the results were NPYLR7 agonist -5 and NPYLR7 agonist max-min -3.
NC1(c2ccccc2Cl)CCCCC1=O (configuration not stated) was read as NPYLR7 agonist -6 and NPYLR7 agonist max-min -8.
Screening COc1ccc(N(C)C(=O)c2ccc(Cn3nc(C(=O)N4CCN(CCO)CC4)c4ccccc43)cc2)cc1 returned NPYLR7 agonist 0 and NPYLR7 agonist max-min 19.
For C#CCN(C)S(=O)(=O)c1ccc(Cn2nc(C(=O)NCCOC)c3ccccc32)cc1 the results were NPYLR7 agonist 13 and NPYLR7 agonist max-min 13.
`O=C(Nc1ccc(F)c(F)c1F)c1cccn(Cc2ccccc2)c1=O` gave NPYLR7 agonist 14 and NPYLR7 agonist max-min 6.
`O=C(CSc1ccccn1)N1CC[C@H]2CC[C@@H](C1)N2` gave NPYLR7 agonist -5 and NPYLR7 agonist max-min -10.
`O=S(=O)(c1ccc(Cl)cc1)c1ccc(Cl)cc1` gave NPYLR7 agonist -5 and NPYLR7 agonist max-min -8.
For CN(C)c1ccc(C=C2C(=O)NC(=S)NC2=O)cc1 the results were NPYLR7 agonist -1 and NPYLR7 agonist max-min -3.
`CN1C(=O)C(=Cc2ccccc2Cl)C(=O)N(C)C1=O` gave NPYLR7 agonist -1 and NPYLR7 agonist max-min 1.
For CC(C)(C)c1ccc(OCC(=O)N2CCN(CCCOC(c3ccc(Cl)cc3)c3ccc(Cl)cc3)CC2)cc1 the results were NPYLR7 agonist 4 and NPYLR7 agonist max-min 0.

Three entries picked at random from the list so far, as already listed:
`O=C(CSc1ccccn1)N1CC[C@H]2CC[C@@H](C1)N2` gave NPYLR7 agonist -5 and NPYLR7 agonist max-min -10.
`CN1C(=O)C(=Cc2ccccc2Cl)C(=O)N(C)C1=O` gave NPYLR7 agonist -1 and NPYLR7 agonist max-min 1.
For CN(C)c1ccc(C=C2C(=O)NC(=S)NC2=O)cc1 the results were NPYLR7 agonist -1 and NPYLR7 agonist max-min -3.

Later entries:
For COCCNC(=O)CN1C(=O)CSC(c2ccc(F)cc2F)c2c(-c3ccccc3)nn(-c3ccc(F)cc3)c21 (configuration not stated) the results were NPYLR7 agonist 23 and NPYLR7 agonist max-min 9.
For Nc1cc(-c2cccc3c2CCNC3)ncn1 the results were NPYLR7 agonist 8 and NPYLR7 agonist max-min 4.
Screening O=C1Nc2ccc(Cl)cc2C(c2ccccc2Cl)=NC1O (configuration not stated) returned NPYLR7 agonist 12 and NPYLR7 agonist max-min 6.
For Cn1cc(CCN2CCN(c3ccccc3Cl)CC2)cn1 the results were NPYLR7 agonist -10 and NPYLR7 agonist max-min -18.
For Cc1[nH]c(=O)n(C(C)(C)C)c(=O)c1Cl the results were NPYLR7 agonist -6 and NPYLR7 agonist max-min -7.
CC(C(=O)NC(N)=O)N1CCC2(CCCCC2)C1 (configuration not stated) was read as NPYLR7 agonist 3 and NPYLR7 agonist max-min 2.
Screening C[N+]1(C)CCC(OC(=O)C(O)(c2ccccc2)c2ccccc2)CC1 returned NPYLR7 agonist -5 and NPYLR7 agonist max-min -8.
Screening CCc1c(C)nc(N)nc1N1N=C1SCCOc1ccccc1 returned NPYLR7 agonist 2 and NPYLR7 agonist max-min 3.
Screening O=C(c1ccc(F)cc1)N1CCSC12CCNCC2 returned NPYLR7 agonist 10 and NPYLR7 agonist max-min 14.
`COC1=CC(=O)O[C@@H](/C=C/c2ccccc2)C1` gave NPYLR7 agonist -1 and NPYLR7 agonist max-min -4.
COC(c1ccccc1)C(C)NCCO (configuration not stated) was read as NPYLR7 agonist 0 and NPYLR7 agonist max-min 7.
C=CCc1cc(OC)c2c(c1OC)OCO2 was read as NPYLR7 agonist 4 and NPYLR7 agonist max-min 1.
For CCNCC(O)c1cccc(O)c1 (configuration not stated) the results were NPYLR7 agonist 20 and NPYLR7 agonist max-min 2.
For CCN1C[C@]2(C)CC[C@H](O)[C@]34C1[C@H](C[C@H]23)[C@@]1(O)C[C@H](OC)[C@H]2C[C@@H]4[C@@H]1C2O (some centres not stated) the results were NPYLR7 agonist -2 and NPYLR7 agonist max-min -7.
`NCCc1ccc(Oc2ccccc2)c(F)c1` gave NPYLR7 agonist -7 and NPYLR7 agonist max-min -9.

Seven successive compounds from above, for reference:
For Nc1cc(-c2cccc3c2CCNC3)ncn1 the results were NPYLR7 agonist 8 and NPYLR7 agonist max-min 4.
Screening O=C1Nc2ccc(Cl)cc2C(c2ccccc2Cl)=NC1O (configuration not stated) returned NPYLR7 agonist 12 and NPYLR7 agonist max-min 6.
For Cn1cc(CCN2CCN(c3ccccc3Cl)CC2)cn1 the results were NPYLR7 agonist -10 and NPYLR7 agonist max-min -18.
For Cc1[nH]c(=O)n(C(C)(C)C)c(=O)c1Cl the results were NPYLR7 agonist -6 and NPYLR7 agonist max-min -7.
CC(C(=O)NC(N)=O)N1CCC2(CCCCC2)C1 (configuration not stated) was read as NPYLR7 agonist 3 and NPYLR7 agonist max-min 2.
Screening C[N+]1(C)CCC(OC(=O)C(O)(c2ccccc2)c2ccccc2)CC1 returned NPYLR7 agonist -5 and NPYLR7 agonist max-min -8.
Screening CCc1c(C)nc(N)nc1N1N=C1SCCOc1ccccc1 returned NPYLR7 agonist 2 and NPYLR7 agonist max-min 3.

The list goes on:
For NC(=O)CN1CCCN(C(=O)Cc2ccc(F)c(Br)c2)CC1 the results were NPYLR7 agonist 10 and NPYLR7 agonist max-min 6.
For Cc1cccc(CN(C)C(C)Cc2ncccc2C)n1 (configuration not stated) the results were NPYLR7 agonist 9 and NPYLR7 agonist max-min 3.
`Cc1cc(O)c(C(=O)Nc2cccc(Cl)c2)c(=O)n1CC1CCCO1` (configuration not stated) gave NPYLR7 agonist -3 and NPYLR7 agonist max-min -6.
Cc1cc(C)n(CC(C)NCCc2c[nH]c3c(C)cccc23)n1 (configuration not stated) was read as NPYLR7 agonist 1 and NPYLR7 agonist max-min 17.
For CN1CCN(c2ncnc3sccc23)CC1 the results were NPYLR7 agonist -4 and NPYLR7 agonist max-min -7.
c1cc2n(c1)-c1c(ccc3c1OCO3)CNC2c1ccc2c(c1)OCO2 (configuration not stated) was read as NPYLR7 agonist -1 and NPYLR7 agonist max-min -1.
Screening c1ccc2c(c1)[nH]c1cnccc12 returned NPYLR7 agonist 9 and NPYLR7 agonist max-min 4.
COc1ccc(NC(=O)C(C2CCCC2)N2CCN(C(=O)Cc3cccs3)CC2)cc1 (configuration not stated) was read as NPYLR7 agonist -3 and NPYLR7 agonist max-min 2.
For CC(Cn1ccnc1)NCc1n[nH]c2c1CCC2 (configuration not stated) the results were NPYLR7 agonist 3 and NPYLR7 agonist max-min 1.
`N#CC1C(=N)Oc2c(c(=O)oc3ccccc23)C1C1CC=CCC1` (configuration not stated) gave NPYLR7 agonist 5&-4 and NPYLR7 agonist max-min 4&-10.
O=C(c1cnn2ccccc12)N1C[C@H](c2ccccc2)[C@@H]2[C@H]1C1CCN2CC1 was read as NPYLR7 agonist 10 and NPYLR7 agonist max-min 8.
Screening CC1Cc2ccccc2N1P(=O)(N(C)C)N(C)C (configuration not stated) returned NPYLR7 agonist 5 and NPYLR7 agonist max-min 3.
For Nc1cc(Cl)ccc1Cl the results were NPYLR7 agonist 3 and NPYLR7 agonist max-min 9.
Screening Cc1nn(CCC#N)c2c1P(=S)(N1CCCCC1)OC(c1ccc(F)cc1)=N2 (configuration not stated) returned NPYLR7 agonist 2 and NPYLR7 agonist max-min 1.
For COc1ccc(Cl)cc1S(=O)(=O)N1CCN(CCOC(c2ccccc2)c2ccc(N3CCOCC3)cc2)CC1 (configuration not stated) the results were NPYLR7 agonist 4 and NPYLR7 agonist max-min -1.
`O=C(c1cccnc1)C1CCCN(Cc2cc3n(n2)CCCNC3)C1` (configuration not stated) gave NPYLR7 agonist 9 and NPYLR7 agonist max-min 3.
`CC(C)[C@]12O[C@H]1[C@@H]1O[C@]13[C@]1(O[C@H]1C[C@H]1C4=C(CC[C@@]13C)C(=O)OC4)[C@@H]2O` gave NPYLR7 agonist -7 and NPYLR7 agonist max-min -12.
For CCOc1nc(NC(C)C)nc(N2CC3CC(C2)c2cccc(=O)n2C3)n1 (configuration not stated) the results were NPYLR7 agonist 0 and NPYLR7 agonist max-min -1.
`Cc1nc2ccc(I)cc2c(=O)n1-c1ccc(C(=O)O)cc1` gave NPYLR7 agonist -2 and NPYLR7 agonist max-min 0.
Screening O=[N+]([O-])c1cc(Cl)ccc1Cl returned NPYLR7 agonist 9 and NPYLR7 agonist max-min 8.
